Ecoli growth = inhibitors of Escherichia coli growth; OD600 absorbance (no concentration beside the values); 330,000 compounds, 0.21% hits; OD600, 23 h; hits give low values;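 active = OD600 absorbance below the run mean of sample wells minus 3.6 SD, in any replicate, cut at about 0.56 in these data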;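 note: stock transfer was 300 nL into about 60 µL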
HNF4A DNA FP = change in binding of human HNF4 alpha to DNA; P41235; HNF4a-FITC DNA binding, fluorescence polarization, 1 h; activity change, % at 10 µM; 360,000 compounds, 0.3% hits; AID 1224865; in the data active = activity change above about 30%, passing the limit was not always enough;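 note: controls were the assay level and a saturating level of protein; the project sought stronger binding though the title names inhibitors; some compounds called inactive have numbers as strong as hits; positive values seem to mean higher polarization but the record does not say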
Target sequence (P41235 whole entry, looked up): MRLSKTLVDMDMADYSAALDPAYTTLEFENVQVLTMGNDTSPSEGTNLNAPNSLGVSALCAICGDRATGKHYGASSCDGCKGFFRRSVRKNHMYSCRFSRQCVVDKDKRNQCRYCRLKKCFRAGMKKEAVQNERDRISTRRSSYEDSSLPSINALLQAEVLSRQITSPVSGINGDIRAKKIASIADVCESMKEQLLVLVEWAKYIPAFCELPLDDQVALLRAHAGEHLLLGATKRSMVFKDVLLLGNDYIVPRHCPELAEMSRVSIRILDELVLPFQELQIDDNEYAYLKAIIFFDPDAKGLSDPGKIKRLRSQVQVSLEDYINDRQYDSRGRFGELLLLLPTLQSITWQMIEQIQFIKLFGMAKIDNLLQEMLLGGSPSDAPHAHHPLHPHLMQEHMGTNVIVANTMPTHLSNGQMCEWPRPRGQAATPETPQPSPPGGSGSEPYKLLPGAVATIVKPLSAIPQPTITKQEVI
ALR H2O2 inh = human ALR oxidase inhibition via reduced H2O2 | inhibition, % (concentration not given with the values) | 290,000 compounds, 3.8% hits | purified ALR, DTT oxidation, H2O2 HRP-luminol luminescence | AID 485317;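 active = mean and each replicate at 75% or more; inconclusive = only one of the two met; inactive = neither met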;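 note: stock transfer was 7.5 nL into about 7.5 µL; 0% = neutral wells and 100% = wells with inactivated enzyme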
FGF22 binding = FGF22 (human) thermal shift binding | Q9HCT0 | recombinant FGF22 thermal shift, SYPRO orange fluorescence; percent of sucrose octasulfate shift, DMSO zero | calls only at 9.99 µM | 340,000 compounds, 1.5% hits | AID 651658;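 active = melting point raised past a set limit in the mean and every replicate; inconclusive = no clear call; three in four hits are not shown here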
Target sequence (Q9HCT0 whole entry, looked up): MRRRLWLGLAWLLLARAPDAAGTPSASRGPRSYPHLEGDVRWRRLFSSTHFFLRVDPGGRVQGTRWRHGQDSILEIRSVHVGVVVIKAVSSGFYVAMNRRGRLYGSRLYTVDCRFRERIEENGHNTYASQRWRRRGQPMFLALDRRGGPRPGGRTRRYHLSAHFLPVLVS
Ecoli rRNA inh = inhibits bacterial ribosomal RNA function over humanized ribosomes; E. coli WT GFP vs humanized-ribosome RFP mutants, fluorescence, 24 h; hits give low values; DMSO median 0, no signal -100; GFP signal change (wild-type ribosome), % (test concentration not listed); 350,000 compounds, 1.6% hits;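 active = significant combined selectivity score with lowered wild-type GFP, culture density cut under 30%, mutant RFP and density less affected; inactive = any of these conditions unmet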; note: one replicate is shown; some compounds called inactive have numbers as strong as hits
Beta2AR agonist = activates human beta-2 adrenergic receptor causing internalization | P07550 | Am2.2-beta2AR cells, FAP receptor internalization, flow cytometry; reference of the scale not given here | response, % (no concentration beside the values) | 340,000 compounds, 0.43% hits;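 active = response above a set limit, near 3 SD of response in nonfluorescent compounds, cut at about 42% in these data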;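 note: stock transfer was 100 nL into about 11 µL; a reference agonist was the positive control; negative values mostly stem from fluorescent compounds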
Target sequence (P07550 whole entry, looked up): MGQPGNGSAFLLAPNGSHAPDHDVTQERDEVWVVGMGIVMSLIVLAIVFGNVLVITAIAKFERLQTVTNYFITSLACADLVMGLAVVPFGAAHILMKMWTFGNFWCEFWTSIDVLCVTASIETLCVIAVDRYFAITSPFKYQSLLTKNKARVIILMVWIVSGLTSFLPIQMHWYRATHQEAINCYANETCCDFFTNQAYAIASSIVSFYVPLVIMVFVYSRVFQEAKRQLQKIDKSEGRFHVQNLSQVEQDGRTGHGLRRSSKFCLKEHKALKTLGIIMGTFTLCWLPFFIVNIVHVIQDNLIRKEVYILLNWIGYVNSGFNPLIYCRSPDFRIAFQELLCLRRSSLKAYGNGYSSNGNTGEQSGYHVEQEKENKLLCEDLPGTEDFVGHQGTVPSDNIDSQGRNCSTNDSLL
UCH37 inh = inhibitors of human deubiquitinating enzyme UCH37; AID 588478; 330,000 compounds, 0.33% hits; purified proteasome/UCH37, Ub-AMC cleavage fluorescence; inhibition, % (test concentration not listed);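 active = mean of two replicates above 20%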;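 note: 0% = compound-free wells with enzyme and 100% = wells lacking proteasome; stock transfer was 100 nL into about 20 µL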
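assay system = human UCH37 enzyme supplied as purified proteasome complex | amount = proteasome at 0.15 nM in the dispensed enzyme solution | schedule = 30 min compound-proteasome preincubation then 25 min substrate reaction, room temperature | measured by = fluorescence, ex 355 nm, em 460 nm | benchmarks = no-proteasome wells (full inhibition) and compound-free wells (no inhibition)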
Ecoli rRNA inh OD600 = further read-out of Ecoli rRNA inh, marked with its call; OD600 change, %; measured here: OD600 growth;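 optical density of the mix in the first replicate; 0 = DMSO median and -100 = no signal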
Ecoli rRNA inh RFP = further read-out of Ecoli rRNA inh, marked with its call; RFP signal change, %; measured here: RFP humanized mutant strains;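 first replicate; 0 = DMSO median and -100 = no signal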
* = called active by the depositor; i = inactive; ? = inconclusive; . = not tested or not shown; & = joins results of further samples. A portion of the library (hit frequency here may not be typical).

SMILES	Ecoli growth	HNF4A DNA FP	ALR H2O2 inh	FGF22 binding	Ecoli rRNA inh	Ecoli rRNA inh OD600	Ecoli rRNA inh RFP	Beta2AR agonist	UCH37 inh
O=C(Cc1ccccc1)Nc1c(C(=O)N2CCCCCC2)cnn1-c1ccccc1	0.7	3.1	-10	.	.	.	.	0	0.9
O=C(NC1CC1)C1CCN(C(=O)c2ccccc2Cl)CC1	0.7	0.1	.	i	1	2	-2.5	8	4.6
Cc1cc(SC(C)C(=O)Nc2ncc(Cl)cc2Cl)nc2ccccc12 (stereo unspecified)	0.72	-1.2	0	i	.	.	.	-29	4.5
CCC(C)Sc1nnc(Cc2cc(=O)[nH]c(=O)[nH]2)n1-c1ccc(F)cc1 (stereo unspecified)	0.68	-5.9	98*	i	9	6	-1.3	-5	4.2
CCc1ccc(NC(=O)CSc2nnc(C)c(=O)n2N)cc1	0.62	-2.1	99*	i	-10	-14	-0.2	-6	0.8
Cc1cc(C)n2nc(C(=O)OCC(=O)Nc3ccc(Cl)cc3)nc2n1	.	-2.3	.	i	12	15	-0.9	.	.
Cc1cccc(NCC(O)Cn2cnc3c2c(=O)n(C)c(=O)n3C)c1 (stereo unspecified)	0.7	-0.2	73	.	.	.	.	-2	1.1
CCC(=O)NC(c1ccccc1)c1nc2ccccc2[nH]1 (stereo unspecified)	0.69	0.8	-11	.	.	.	.	-7	1.4
CC(C)(C)NC(=O)C(c1cccnc1)N(C(=O)c1ccc(Cl)nc1)C1CCCC1 (stereo unspecified)	0.68	8.8	-1	i	14	5	0.3	-8	1.9
O=C(O)CC(C(=O)Nc1ccc(F)cc1)C1CCCO1 (stereo unspecified)	0.67	3.4	-2	i	12	8	8.0	-1	1.2
CCOC(=O)C1(Cc2cccc(Cl)c2)CCCN(C(=O)c2cccc(C)n2)C1 (stereo unspecified)	0.69	1.3	-4	i	-18	-10	1.7	-2	-0.4
O=C(NNC1CC(=O)N(c2ccc(F)cc2)C1=O)c1cccnc1 (stereo unspecified)	0.7	1.9	.	i	4	10	-2.4	-1	1.4
COc1ccc(Cl)cc1NC(=O)CN1CCC(NC(=O)C2CC2)CC1	0.68	0.2	-13	i	0	-4	0.1	5	1.3
CCCN(CCC)CCNc1c(NC2CCN(C(=O)OCC)CC2)c(=O)c1=O	0.71	0.3	2	i	9	13	-1.8	-4	2.5
CC(=O)N1CCCc2cc(S(=O)(=O)N3CCc4ccccc4C3)ccc21	0.71	-0.6	-8	.	.	.	.	-6	4.2
Cc1cc(NC(=O)c2ccc3[nH]c(C)c(C)c3c2)ccn1	0.65	2.2	17	i	-18	-9	-1.5	-6	1.1
Cc1ccc(NS(=O)(=O)c2ccc3c(c2)NC(=O)C(C)C(=O)N3)c(Cl)c1 (stereo unspecified)	0.72	0.4	17	i	-4	5	5.3	-3	6.0
O=C(CCn1c(=S)[nH]c2ccccc2c1=O)Nc1ccc(F)cc1	0.66	1.9	-2	i	-2	9	1.3	-4	2.3
Cc1ccc2nsnc2c1NC(=O)c1ccc([N+](=O)[O-])o1	0.65	-5.2	-30	.	.	.	.	-3	6.8
CCN(c1ccccc1)S(=O)(=O)c1cccc(C(=O)OCc2nc3sc(C)c(C)c3c(=O)[nH]2)c1	0.73	11	-3	i	2	-3	6.1	-1	3.9
CCOC(=O)C1=C(C)Nc2ccccc2N=C1NC(=O)Cc1ccc(Cl)c(Cl)c1	0.67	1.8	-2	i	12	11	-1.4	1	2.0
CCCCn1c(SCC(=O)N(C)C2CCS(=O)(=O)C2)nc2cc(S(N)(=O)=O)ccc21 (stereo unspecified)	0.68	-4.4	-1	i	10	4	-2.9	-5	0.1
CCOc1ccc(C2=CC(=O)C[C@H](c3ccc(OC)cc3)C2)cc1	.	-0.8	0	i	-7	-3	-3.5	-1	0.2
CN(C(=O)COC(=O)c1ccc(S(=O)(=O)N2CCCC2)cc1)c1ccccc1	0.72	2.2	-2	i	-1	-5	-2.8	0	0.8
CNS(=O)(=O)c1cc(-c2nnc(N3CCOCC3)c3ccccc23)ccc1C	0.65	-0.3	-2	i	-32	-32	-2.8	-5	4.3
Other records follow:
SMILES	Ecoli growth	HNF4A DNA FP	ALR H2O2 inh	FGF22 binding	Ecoli rRNA inh	Ecoli rRNA inh OD600	Ecoli rRNA inh RFP	Beta2AR agonist	UCH37 inh
CN(C)c1ccc(NC(=O)CN2CCc3ccccc3C2)cc1	0.65	-6.5	99*	i	0	6	2.2	15	2.2
CCCCN(CC)Cc1c(C)[nH]c2ccccc2c1=O	0.72	-2.4	-1	.	.	.	.	-7	1.1
CC(C)OCCCNC(=O)CN1C(=O)COc2ccc(S(=O)(=O)N3CCCCCC3)cc21	0.74	0.2	.	i	0	0	-0.3	6	1.8
CC1CC1C(=O)OCC(=O)Nc1cccc([N+](=O)[O-])c1 (stereo unspecified)	0.66	-5.4	-4	i	7	12	1.9	-4	1.1
CCOC(=O)C(C)N1C(=O)S/C(=C/c2cc(C)n(-c3ccncc3)c2C)C1=O (stereo unspecified)	0.73	0.8	4	i	-30	-35	32	3	2.6
OCCNCC(O)Cn1c2ccccc2c2ccccc21 (stereo unspecified)	0.71	2.4	0	i	12	20	-4.5	-4	6.4
CC1Cc2ccccc2N1C(=O)CSc1ncccc1C(=O)O (stereo unspecified)	0.66	0.8	-1	.	.	.	.	0	4.2
COc1ccc(OC)c(/C=N/n2c(COc3ccccc3)n[nH]c2=S)c1	.	3.6	-5	i	-3	5	21	13	.
CNC(=S)NNC(=O)c1sc2cc(C(F)(F)F)cnc2c1-c1ccccn1	0.65	-6.0	-5	i	-2	1	9.8	1	7.8
CC(C)CN1CCC(C(=O)NCC2CCCO2)CC1 (stereo unspecified)	0.72	0.3	-22	.	.	.	.	-3	-1.3
O=C(NCc1ccccn1)C(=O)NCC(c1ccco1)N1CCOCC1 (stereo unspecified)	0.73	1.0	-3	i	18	4	0.6	-3	-2.0
CC(C)(C)c1ccc(-c2nc(C=O)c3ccccn23)cc1	.	2.6	-7	.	.	.	.	5	.
CCn1cc(C(=O)NCc2cccc(F)c2)c(=O)c2cc(F)c(N3CCN(C(=O)c4ccco4)CC3)cc21	0.41*	0.8	3	.	.	.	.	-1	-54
N/N=C(\c1ccccc1)c1cc(Br)ccc1N	.	2.0	.	i	-10	-3	-1.2	-8	.
CC(=O)c1cccc(-n2c(CCC(=O)O)ccc2-c2ccc(C)cc2)c1	0.63	-4.9	27	.	-12	-6	9.0	5	1.4
Cc1cc(C)nc(SCc2ccc(C(=O)N/N=C3\CCCC(=O)C3)cc2)n1	.	3.7	53	i	-5	-9	-2.3	-20	.
CC1CCCCC1NC(=O)C1CCN(C(=O)NC2CCCCC2)CC1 (stereo unspecified)	0.72	1.7	-9	.	.	.	.	-7	2.2
Cc1cc(C(=O)O)c(C)n1Cc1ccncc1	0.7	3.3	20	i	1	6	1.2	-4	5.5
C=CCn1c(SCC(=O)Nc2ccccc2)nnc1-c1cccc(S(=O)(=O)N2CCOCC2)c1	0.78	-0.9	-6	.	.	.	.	-6	5.7
CCN1C(=O)/C(=C2\C=Cc3cc(C)ccc3N2CC)OC1=S	.	13	-1	.	.	.	.	2	2.2
CN(C)CCNC(=O)Cn1ccc2cc(S(=O)(=O)N3CCCCCC3)ccc21	0.65	5.4	0	i	5	7	-1.5	0	1.9
COc1ccc(S(=O)(=O)N(C)C[C@H]2Oc3ccc(NC(=O)CCC(F)(F)F)cc3C(=O)N([C@H](C)CO)C[C@@H]2C)cc1	0.72	-0.8	.	i	-1&0	-3&4	0.3&3.4	-1	6.7
CC(O)(CS(=O)(=O)Cc1ccc(Cl)cc1)C(=O)Nc1cccc(C(F)(F)F)c1 (stereo unspecified)	0.73	-0.7	-4	i	-1	12	8.4	-6	1.9
Cc1ccc(NC(=O)c2cnc(SCC(=O)NCC3CCCO3)n(C)c2=O)cc1 (stereo unspecified)	0.7	-3.3	-11	i	1	14	-6.0	15	-212
CCn1cc[n+](C)c1P(c1ccccc1)c1ccccc1	0.7	4.0	-2	i	14	11	2.3	-4	-1.0
(continued)
SMILES	Ecoli growth	HNF4A DNA FP	ALR H2O2 inh	FGF22 binding	Ecoli rRNA inh	Ecoli rRNA inh OD600	Ecoli rRNA inh RFP	Beta2AR agonist	UCH37 inh
Cn1c(=O)c2sccc2n2c(CCCC(=O)N3CCN(c4ccccn4)CC3)nnc12	0.69	2.5	6	i	-4	-4	-1.0	0	0.6
CC(C)(C)OC(=O)[C@H](Cc1ccccc1)NC(=O)c1nc[nH]c1C(=O)N1CCN(C(=O)OC(C)(C)C)CC1	.	-2.6	-1	i	5	-10	12	-5	0.2
COCCCNC(=O)Cn1c(=O)n(Cc2ccc(F)cc2)c(=O)c2sccc21	0.65	2.1	-10	.	.	.	.	9	2.4
COc1ccc(C(=O)Nc2ccc(N3CCCC3)cc2)cc1Br	0.68	4.1	5	i	-9	8	9.8	10	2.1
COc1ccc(CCNC(=O)C(=O)NCc2ccccn2)cc1	0.7	-4.6	-6	i	10	7	1.1	0	-0.7
Cc1ccc(S(=O)(=O)n2[nH]c(=O)cc2N)cc1	0.67	-2.0	.	i	0	9	-4.8	2	2.8
CC(C)(CCl)C(=O)Nc1ccc(Sc2ccc(F)cc2)cc1	0.65	-1.2	-3	.	.	.	.	-9	2.3
Cc1cccc(OCCCC(=O)Nc2ccc3c(c2)OCO3)c1	0.71	3.9	-3	.	.	.	.	-5	2.3
Nc1ccnn1-c1ccccc1	0.65	1.1	1	i	4	4	-2.2	-1	5.0
NC(=O)C1CNc2ccccc2O1 (stereo unspecified)	0.7	0.5	?	.	.	.	.	-4	2.2
COc1ccccc1N1C(=NC(=O)CCC2CCCC2)SC2CS(=O)(=O)CC21 (stereo unspecified)	0.69	1.5	0	i	9	6	1.5	2	1.5
CCOC(=O)c1c(NC(=O)COC(=O)c2ccccn2)sc2c1CCC2	0.71	-3.6	.	i	-18*	-6.6*	4.1*	-4	2.1
COc1cccc(N/N=C(\C#N)S(=O)(=O)C(C)(C)C)c1	.	0.6	47	.	-18	-15	-4.3	28	.
CCN(C(=O)CSc1cc(C)c2ccccc2n1)C1CCS(=O)(=O)C1 (stereo unspecified)	0.67	-1.3	-17	i	-3	-25	-0.2	3	-0.7
Brc1ccc([C@H]2CN3CCSC3=N2)cc1	.	-2.2	-11	i	2	-10	5.6	-14	1.1
CC(C)=NOc1nc(N(C)C)nc(N2CCOCC2)n1	0.68	4.0	-7	i	-1	-11	-5.3	18	2.7
COc1ccccc1CC(Cc1nc2ccccc2[nH]1)c1nc2ccccc2[nH]1 (stereo unspecified)	0.62	-3.2	-8	i	-51	-80	-13	3	0.1
O=C(Nc1ccccc1)Oc1cccc(Br)c1	0.61	2.4	-6	i	8	3	-1.5	7	4.1
O=C1CC(c2ccccc2)CC(O)=C1C=NCCCO (stereo unspecified)	0.68	-2.9	-6	.	.	.	.	1	22*

Five structures from above, arranged by length of the SMILES, largest number first.
SMILES	Ecoli growth	HNF4A DNA FP	ALR H2O2 inh	FGF22 binding	Ecoli rRNA inh	Ecoli rRNA inh OD600	Ecoli rRNA inh RFP	Beta2AR agonist	UCH37 inh
CCN(C(=O)CSc1cc(C)c2ccccc2n1)C1CCS(=O)(=O)C1 (stereo unspecified)	0.67	-1.3	-17	i	-3	-25	-0.2	3	-0.7
CC(C)(CCl)C(=O)Nc1ccc(Sc2ccc(F)cc2)cc1	0.65	-1.2	-3	.	.	.	.	-9	2.3
COc1ccc(C(=O)Nc2ccc(N3CCCC3)cc2)cc1Br	0.68	4.1	5	i	-9	8	9.8	10	2.1
Cc1ccc(S(=O)(=O)n2[nH]c(=O)cc2N)cc1	0.67	-2.0	.	i	0	9	-4.8	2	2.8
Brc1ccc([C@H]2CN3CCSC3=N2)cc1	.	-2.2	-11	i	2	-10	5.6	-14	1.1

Source: PubChem (several laboratories)
